GALR2 ag: GALR2 (human) receptor agonism. GALR2-expressing cells, agonist activation read-out. activation, %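 (tested at 5 µM)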. 0.48% of 140,000 active. AID 803;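 active = above mean plus 3 SD of all compounds, about 5% in these data, not always enough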;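 note: 0% = vehicle buffer wells and 100% = reference agonist at full effect; tested in CHO reporter cells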
Target sequence (O43603 whole entry, looked up): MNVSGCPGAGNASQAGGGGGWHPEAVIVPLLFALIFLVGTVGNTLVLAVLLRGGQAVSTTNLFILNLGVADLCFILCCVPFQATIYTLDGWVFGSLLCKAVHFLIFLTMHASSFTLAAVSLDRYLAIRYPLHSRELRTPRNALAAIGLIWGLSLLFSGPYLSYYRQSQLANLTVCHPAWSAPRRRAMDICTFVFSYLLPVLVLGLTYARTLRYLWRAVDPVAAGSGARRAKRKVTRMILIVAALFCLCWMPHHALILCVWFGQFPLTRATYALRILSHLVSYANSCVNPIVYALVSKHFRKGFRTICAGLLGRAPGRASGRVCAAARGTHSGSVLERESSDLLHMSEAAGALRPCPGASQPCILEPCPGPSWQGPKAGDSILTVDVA
RGS16-Gao HTS: RGS16-Galphao interaction regulator (human). O15492+P09471. binding response (% of control), % at 10 µM. bead-based flow cytometry RGS16-Galphao binding, fluorescence; actives lie on both sides. AID 1441. 0.38% of 220,000 active;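 active = below 25% or above 175%, edge rows of some plates excepted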;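 note: Galphao activated by GDP with aluminum fluoride before binding; 100% = wells without compound and 0% = beads without RGS; some results beyond the cut were filed as inactive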
Target sequence (O15492 whole entry, looked up): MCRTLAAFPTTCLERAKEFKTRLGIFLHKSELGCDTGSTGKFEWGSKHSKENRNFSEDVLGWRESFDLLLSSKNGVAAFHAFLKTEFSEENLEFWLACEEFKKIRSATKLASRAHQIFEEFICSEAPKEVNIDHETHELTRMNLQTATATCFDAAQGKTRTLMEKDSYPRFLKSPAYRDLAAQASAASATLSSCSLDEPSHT
Target sequence (P09471 whole entry, looked up): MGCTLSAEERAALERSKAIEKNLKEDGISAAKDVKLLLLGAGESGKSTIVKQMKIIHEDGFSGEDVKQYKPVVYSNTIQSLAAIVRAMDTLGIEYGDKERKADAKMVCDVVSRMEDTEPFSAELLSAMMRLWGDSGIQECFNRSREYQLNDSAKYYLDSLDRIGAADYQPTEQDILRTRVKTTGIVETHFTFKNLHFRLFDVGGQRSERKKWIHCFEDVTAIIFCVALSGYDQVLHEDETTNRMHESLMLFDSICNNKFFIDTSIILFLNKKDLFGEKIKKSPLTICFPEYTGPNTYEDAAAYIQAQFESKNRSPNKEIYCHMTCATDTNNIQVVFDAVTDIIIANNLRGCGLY
HSV augment: increases HSV replication in cells. AID 1956. 0.005% of 220,000 active. maximum fold increase. HSV replication augmentation in cells, fold increase;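 active = peak rise of 1.5-fold or more in the series; tested in PC3 cells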;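 note: first round at 10 µM; read as green reporter fluorescence; hits show the peak of a series up to 25 µM; 1 = signal of infected wells without compound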
PKD1 kinase inh: inhibitors of human PKD1 kinase. inhibition, %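 (about 10 µM by stock and volumes)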. PKD1 kinase fluorescence polarization assay. AID 797. 0.056% of 200,000 active;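 active = inhibition of 50% or more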;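 note: controls were vehicle for no effect and a reference inhibitor for full effect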
Insulin prom inh: TRM-6 insulin promoter activity inhibition; TRM-6 cells (human fetal islet line), insulin promoter-eGFP reporter, imaging; reporter expression induced with tamoxifen; inhibition, % at 2 µM; 0.9% of 130,000 active;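 active = inhibition above the mean plus 3 SD, with well images judged a real hit on visual review, cut at about 60% in these data, passing the limit was not always enough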
Insulin prom inh cell count: further read-out of Insulin prom inh, marked with its call; normalized cell count, %; measured here: cell count, toxicity; reference of the scale not given here;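 cells exposed to compound for 48 h; stained nuclei by imaging scaled within each plate; lower means fewer cells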
HSV augment primary fold: also measured in HSV augment; calls as there; fold increase; compound at 10 µM; measured here: primary screen fold increase 10 uM; tested in PC3 cells;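 GFP signal in the first replicate; 1 = infected wells without compound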
Starred values were filed as active, the others as inactive; i = inactive; nt = not tested or not shown.

# | SMILES | GALR2 ag | RGS16-Gao HTS | HSV augment | HSV augment primary fold
1 | COc1ccc(C(C)C)cc1S(=O)(=O)N1CCN(C)CC1 | -0.2 | 100 | i | 1
2 | O=C(/C=C/c1cccs1)N1CCC2(CC1)Oc1ccc(Cl)cc1C(=O)C21CC(c2cccnc2)=NO1 (stereo unspecified) | nt | 101 | i | 0.68
3 | CCOc1cccc(C(=O)N2CCCCC2c2cccnc2)c1 (stereo unspecified) | -2.1 | 99 | i | 0.96
4 | COc1ccc(NC(=O)CSc2nc(N)c3cc4c(nc3n2)CC(C)(C)OC4)cc1 | nt | 98 | i | 0.83
5 | CC(=O)Nc1ccccc1NC(=O)c1cc(C)cc(C)c1 | nt | 98 | i | 0.92
6 | CN(C)CCC(=O)NCC1OCCc2ccccc21 (stereo unspecified) | -2.3 | 99 | i | 0.93
7 | Cc1cc(C)c(NC(=O)c2ccoc2C)c(C)c1 | -1.6 | 128 | i | 0.75
8 | CC1(C)Cc2[nH]c(=S)c(C#N)cc2CO1 | -2.2 | 98 | i | 1.1

# | PKD1 kinase inh | Insulin prom inh | Insulin prom inh cell count
1 | -2 | 61 | 105
2 | nt | nt | nt
3 | -3 | -164 | 77
4 | nt | nt | nt
5 | -3 | nt | nt
6 | 2 | 22 | 96
7 | -7 | 29 | 88
8 | -4 | nt | nt

Later entries
# | SMILES | GALR2 ag | RGS16-Gao HTS | HSV augment | HSV augment primary fold
9 | COc1cc(OC)c(/C=N/NC(=O)c2ccncc2)cc1Br | nt | 101 | i | 0.85
10 | CCOc1ccc(CC(=O)Nc2c(C(=O)Nc3ccccc3)oc3ccccc23)cc1OCC | -1.1 | 101 | i | 0.7
11 | Cc1ccc(S(=O)(=O)NC(=NC(C)C(=O)O)c2ccccc2)cc1 (stereo unspecified) | 0.4 | 103 | i | 1.1
12 | Cc1oc2cc(O)ccc2c(=O)c1-c1cnn(-c2ccccc2)c1 | -2.4 | 99 | i | 0.99
13 | COc1cc2c(cc1Cl)C(=O)C(F)(c1ccccc1)C(=O)N2 (stereo unspecified) | nt | 98 | i | 0.92
14 | Cc1ccc2c(c1C)NC(C)CC2C (stereo unspecified) | -2.7 | 112 | i | 0.87
15 | O=C1CC(c2nc3ccccc3[nH]2)CN1Cc1ccccc1 (stereo unspecified) | -1.2 | 98 | i | 0.91
16 | N#Cc1c(/N=C/c2ccc(Br)s2)sc2c1CCC2 | -1.1 | 99 | nt | nt

# | PKD1 kinase inh | Insulin prom inh | Insulin prom inh cell count
9 | 1 | -321 | 50
10 | 0 | -37 | 120
11 | -18 | nt | nt
12 | -4 | nt | nt
13 | nt | nt | nt
14 | 2 | 0 | 77
15 | -15 | nt | nt
16 | 3 | -219 | 84

(next part)
# | SMILES | GALR2 ag | RGS16-Gao HTS | HSV augment | HSV augment primary fold
17 | CCn1c(SCC(=O)c2ccc(O)c(O)c2)nnc1-c1ccc(C)cc1 | -0.9 | 98 | i | 1
18 | NS(=O)(=O)c1ccc(CCNC(=O)c2ccc(Br)s2)cc1 | nt | 97 | i | 0.89
19 | CCOC(=O)C1CCN(C(=O)CN(c2ccc3c(c2)OCCO3)S(C)(=O)=O)CC1 | -1.7 | 110 | i | 1
20 | Clc1ccccc1C(c1nnnn1Cc1ccco1)N1CCN(Cc2ccco2)CC1 (stereo unspecified) | 0.0 | 90 | i | 1.1
21 | Cc1cc2c(=O)oc(-c3ccccc3Br)nc2s1 | nt | 100 | i | 0.95
22 | O=C(O/N=C1\CCCc2ccccc21)c1ccc(F)cc1 | 0.7 | 95 | i | 0.86
23 | CCOc1ccc(NS(=O)(=O)c2ccc3[nH]cc(C(=O)NCCOC)c(=O)c3c2)cc1 | -4.7 | 114 | nt | nt
24 | O=C(CSc1nc2[nH]ncc2c(=O)n1-c1ccccc1Br)NCc1ccco1 | -0.7 | 104 | i | 0.92

# | PKD1 kinase inh | Insulin prom inh | Insulin prom inh cell count
17 | 6 | -27 | 98
18 | -5 | nt | nt
19 | 5 | nt | nt
20 | -5 | -60 | 91
21 | nt | nt | nt
22 | 10 | 14 | 138
23 | 4 | nt | nt
24 | -12 | 52 | 88

Next section
# | SMILES | GALR2 ag | RGS16-Gao HTS | HSV augment | HSV augment primary fold
25 | NS(=O)(=O)c1ccc(CNC(=S)NC2CCCCC2)cc1 | nt | 108 | i | 0.93
26 | CCn1c(C2CCN(Cc3ccccc3)CC2)n[nH]c1=S | nt | 99 | i | 0.92
27 | NC(=O)CC(NC(=O)Cc1ccc(Br)cc1)c1ccc(N2CCC(Cc3ccccc3)CC2)c([N+](=O)[O-])c1 (stereo unspecified) | nt | 99 | i | 0.58
28 | Cc1ncsc1CCC(=O)N1CCCC(C(=O)c2cccc(Cl)c2)C1 (stereo unspecified) | nt | 103 | i | 1
29 | COC(=O)C1C(=O)NCC1c1ccc(C)cc1 (stereo unspecified) | -2.2 | 117 | i | 0.92
30 | CCCn1c(Sc2nnnn2-c2ccccc2)n[nH]c1=O | -2.1 | 98 | i | 0.77
31 | COc1ccccc1/C=C/CN1CCC(CO)(Cc2ccccc2)CC1 | nt | 100 | i | 0.94
32 | CC1=NN(c2nc3ccccc3s2)C(O)(C(F)(F)F)C1 (stereo unspecified) | nt | 99 | i | 1.1

# | PKD1 kinase inh | Insulin prom inh | Insulin prom inh cell count
25 | nt | nt | nt
26 | -6 | 67 | 100
27 | nt | nt | nt
28 | -7 | -45 | 105
29 | 5 | -36 | 110
30 | 5 | nt | nt
31 | -2 | -52 | 100
32 | nt | nt | nt

(list continues)
# | SMILES | GALR2 ag | RGS16-Gao HTS | HSV augment | HSV augment primary fold
33 | CCSc1nnc(NC(=O)CC(C)C)s1 | nt | 100 | i | 1
34 | Cc1c(Cl)cn2c(=O)cc(CN3CCN(c4ccccc4)CC3)nc2c1Cl | nt | 95 | i | 0.95
35 | O=c1c(-c2ccc(F)cc2)coc2cc(O)ccc12 | -0.8 | 107 | i | 0.88
36 | CCC(=O)N1COC[C@@H]1Cc1ccccc1 | -0.3 | 103 | i | 0.94
37 | CN(C)S(=O)(=O)c1ccc(C(=O)N2CCN(S(=O)(=O)c3cccs3)CC2)cc1 | nt | 102 | i | 0.87
38 | COc1ccc(NC(=O)Nc2ccc(N3CCCC3=O)cc2)cc1OC | -0.5 | 102 | i | 1.1
39 | CC(=O)Nc1ccc2nc(NC(=O)c3cccs3)sc2c1 | nt | 93 | i | 0.97
40 | C/C(=N\NC(=O)Cc1ccc(Cl)cc1)c1ccccn1 | -1.2 | 133 | nt | nt

# | PKD1 kinase inh | Insulin prom inh | Insulin prom inh cell count
33 | -4 | nt | nt
34 | -6 | nt | nt
35 | -6 | nt | nt
36 | 15 | 15 | 163
37 | -3 | -23 | 86
38 | 1 | nt | nt
39 | nt | nt | nt
40 | -1 | 0 | 55

Continuation.
# | SMILES | GALR2 ag | RGS16-Gao HTS | HSV augment | HSV augment primary fold
41 | FC(F)(F)Oc1ccc(NC(=S)NCc2ccccc2)cc1 | -0.2 | 100 | i | 0.98
42 | CS(=O)(=O)Nc1ccc(C(=O)NCCSCc2ccco2)cc1 | 0.7 | 103 | i | 0.96
43 | Cc1c(C)c2ccc(OC3CCCCC3=O)cc2oc1=O (stereo unspecified) | 1.0 | 71 | nt | nt
44 | Cc1cccc(N2C(=O)CC(N(C(=O)c3ccco3)c3cccc(C)c3)C2=O)c1 (stereo unspecified) | 0.0 | 75 | i | 0.95
45 | O=C1NCCCC2c3c(cc(Br)c(O)c3Br)OC12N1CCCCC1 (stereo unspecified) | 1.3 | 97 | i | 0.99
46 | CCN(CC)S(=O)(=O)c1ccc2[nH]c(=O)[nH]c2c1 | -0.5 | 122 | i | 0.83
47 | Cc1noc(C)c1S(=O)(=O)N1CCCC(C(=O)Nc2ccc(Cl)cn2)C1 (stereo unspecified) | -1.6 | 105 | i | 0.98
48 | CCOC(=O)CNC(=O)C(CC(N)=O)NC(=O)OC(C)(C)C (stereo unspecified) | nt | 99 | i | 1

# | PKD1 kinase inh | Insulin prom inh | Insulin prom inh cell count
41 | 1 | nt | nt
42 | -6 | 27 | 119
43 | 24 | 19 | 104
44 | 2 | 54 | 126
45 | -5 | -28 | 147
46 | -9 | 9 | 114
47 | -19 | nt | nt
48 | nt | nt | nt

(listing goes on)
# | SMILES | GALR2 ag | RGS16-Gao HTS | HSV augment | HSV augment primary fold
49 | CN(CC1COCCO1)c1nc2nonc2nc1N1CCSCC1 (stereo unspecified) | nt | 100 | i | 1.2
50 | COc1ccc(CSc2cccc3cccnc23)cc1[N+](=O)[O-] | -0.7 | 100 | i | 0.81
51 | CCOC(=O)c1c(C)[nH]c(/C(C)=N/O)c1C | -2.2 | 96 | i | 0.94
52 | O=[n+]1c2c(n([O-])c3cc(F)ccc31)CCCC2 | -1.4 | 102 | nt | nt
53 | O=[N+]([O-])c1ccc(Nc2nc(N/N=C\c3ccc4c(c3)OCO4)nc(N3CCCCC3)n2)cc1 | -2.8 | 99 | i | 0.89
54 | Cn1c(C(=O)NCCC2=CCCCC2)cc2c(=O)n3ccccc3nc21 | 1.4 | 105 | i | 1.1
55 | O=C(Nc1cc([N+](=O)[O-])ccc1Cl)C(Sc1ccccc1)c1ccccc1 (stereo unspecified) | -0.7 | 213 | i | 0.98
56 | Cn1c(=O)[nH]c(=O)c2[nH]c(N(Cc3ccccc3)Cc3ccccc3)nc21 | 1.1 | 101 | i | 0.71

# | PKD1 kinase inh | Insulin prom inh | Insulin prom inh cell count
49 | 7 | nt | nt
50 | 10 | 57 | 109
51 | -4 | nt | nt
52 | -6 | 17 | 162
53 | 4 | 21 | 114
54 | -2 | -169 | 106
55 | -2 | -34 | 90
56 | -3 | 31 | 103

Later entries
# | SMILES | GALR2 ag | RGS16-Gao HTS | HSV augment | HSV augment primary fold
57 | CCOC(=O)c1c(C)n(C)c2ccc(OC)c(NS(=O)(=O)CC)c12 | 1.2 | 95 | i | 0.97
58 | CC(=O)NNc1ccc(C(F)(F)F)cc1[N+](=O)[O-] | -1.6 | 88 | i | 1
59 | CCOC1CC(C)(C)NC(=S)N1 (stereo unspecified) | -1.5 | 108 | i | 0.98
60 | C=C(C)CN(CC)Cc1c(C(=O)N(C)CCCC)nc2ccccn12 | nt | 100 | i | 1
61 | CCOc1ccccc1N1CC(C(=O)Nc2ccc(C(=O)O)cc2)CC1=O (stereo unspecified) | -1.6 | 103 | i | 1.1
62 | Oc1c(Br)cc(Br)cc1/C=N/c1nc2c(s1)CCCC2 | -2.2 | 104 | i | 0.97
63 | CCn1c(CSc2ncn[nH]2)nc2cc(C(=O)O)ccc21 | nt | 97 | i | 0.91
64 | Cc1ccccc1-n1c(=O)n(Cc2ccccc2)c(=O)c2[nH]cnc21 | nt | 99 | i | 1.2

# | PKD1 kinase inh | Insulin prom inh | Insulin prom inh cell count
57 | 6 | nt | nt
58 | -12 | -186 | 28
59 | -3 | 38 | 75
60 | 0 | nt | nt
61 | 2 | 50 | 109
62 | -7 | nt | nt
63 | nt | nt | nt
64 | nt | nt | nt

Single records, from the list above. Screens in order: GALR2 ag, RGS16-Gao HTS, HSV augment, HSV augment primary fold, PKD1 kinase inh, Insulin prom inh, Insulin prom inh cell count
Cc1ccccc1-n1c(=O)n(Cc2ccccc2)c(=O)c2[nH]cnc21 is listed with nt, 99, i, 1.2, nt, nt, nt
CCOC1CC(C)(C)NC(=S)N1 (stereo unspecified) is listed with -1.5, 108, i, 0.98, -3, 38, 75
CCn1c(CSc2ncn[nH]2)nc2cc(C(=O)O)ccc21 is listed with nt, 97, i, 0.91, nt, nt, nt

Next part
# | SMILES | GALR2 ag | RGS16-Gao HTS | HSV augment | HSV augment primary fold
65 | CC(C)c1cc(C(=O)N2CCCC(CCC(=O)NCc3ccccc3F)C2)n(C)n1 (stereo unspecified) | nt | 99 | i | 1
66 | O=C(Nc1cccc(O)c1)c1cc(-c2ccco2)on1 | -0.4 | 103 | i | 1.2
67 | O=C(CSc1nnc(Cc2ccsc2)o1)c1ccccc1 | nt | 100 | i | 0.88
68 | O=S(=O)(N1CCCCC1)n1c(Cc2ccccc2)nc2ccccc21 | 0.7 | 100 | i | 0.84
69 | COc1ccc(NC(C)=O)cc1NC(C)C(=O)Nc1cccc2ccccc12 (stereo unspecified) | -1.1 | 102 | i | 0.93
70 | Cc1ccc(OCCn2c(=O)cnc3ccccc32)cc1 | -2.9 | 91 | i | 0.8
71 | CC(Sc1nnc(-c2cccs2)n1-c1ccccc1)C(=O)NCc1ccc2c(c1)OCO2 (stereo unspecified) | -1.8 | 93 | i | 0.96
72 | Cc1cc2cc(CNC(=O)Nc3cccc(Cl)c3)ccc2n1C | -1.9 | 130 | i | 1.1
73 | CC1(C)CC(NC(=O)C(F)(F)F)CC(C)(C)N1OC(=O)c1ccco1 | -1.0 | 103 | i | 0.77

# | PKD1 kinase inh | Insulin prom inh | Insulin prom inh cell count
65 | -4 | nt | nt
66 | 3 | 32 | 76
67 | nt | nt | nt
68 | -13 | -11 | 157
69 | 5 | -46 | 129
70 | -2 | 20 | 65
71 | -6 | -35 | 90
72 | 7 | nt | nt
73 | -14 | nt | nt

Assay outcomes deposited in PubChem BioAssay by several laboratories.
